Screens: PubChem, Fisher Drug Discovery Resource Center
NPYLR7 ag: agonists of mosquito NPYLR7 receptor, primary screen, cell-based, Aedes aegypti, calcium fluorescence, mosquito biting behavior; actives 0.15% (n = 270,000); activation, % at 10 µM; HEK293T NPYLR7/Galpha15, GCaMP6s calcium fluorescence; AID 1259423, 2018; Aedes aegypti neuropeptide Y-like receptor 7 (NPYLR7); in the data active = activation above about 40%;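 also: 0% = vehicle and 100% = reference agonist at the receptor; some compounds past the cut are filed as inactive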
NPYLR7 ag max-min: also measured in NPYLR7 ag; calls as there; activation, %; measured here: Max-Min RFU normalised activation; some inactives read as strong as hits;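 span of the calcium signal over five minutes; 0% = vehicle and 100% = native peptide agonist; compound fluorescence can raise it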
Active calls of the source: *; & = joins results of further samples.

canonical_smiles,NPYLR7 ag,NPYLR7 ag max-min
Cc1ccc(Cn2nnc3c(SCC(=O)OCc4ccccc4)ncnc32)cc1,16.5,20.5
O=C(CSCc1cccc2ccccc12)N1CCc2ccccc2C1,-0.7,-1.7
COC(=O)c1ccoc1COC(=O)c1cccnc1NC(C)C,1.9,12.2
COc1ccc(NC(=O)N(CCN2CCCC2)CC(=O)N(CCc2ccc(OC)c(OC)c2)Cc2sccc2C)cc1,-3.5,5.5
O=C(CN1CC(=O)N2CCC[C@H]2C1=O)N1CCC(CCn2cccn2)CC1,1.9,1.2
COc1ccc(F)c(-c2ncccc2C(=O)N2C[C@H]3CC[C@@H]2C3)c1,7.4,2.2
C=CCCC(=O)N1CCC(c2nc(-c3ccc4c(c3)OCO4)no2)CC1,9.4,5.4
CCn1cc(C(CC(=O)NCc2ccc(F)cc2)c2cccc(Cl)c2)c2ccccc21 (stereo not drawn),17.1,15.1
Cc1nccn1-c1cc(C(C)(C)C)nc2c(-c3ccccc3)cnn12,-1.5,-0.7
Cc1ccc(Cc2nc(CSc3ccc(F)c(F)c3)cs2)cc1,2.1,2.5
COCC1(C(=O)N2CCCN(CC3CC3)C(C(C)C)C2)CCC1 (stereo not drawn),19.1,7.2
CSCc1ccc(C(=O)N2CCOC(CCc3ccccc3)C2)o1 (stereo not drawn),8.9,5.4
Cc1ccc(NC(=O)N(CC(=O)N(Cc2ccc(F)cc2)Cc2sccc2C)C(C)C)c(C)c1,8.6,13.7
CNC(C)c1cccc(-c2ccc(OC(C)C)cc2)c1 (stereo not drawn),3.5,1.0
CC(C)Cc1nc(-c2ccc(CN3CCN(C(=O)c4ccc(C#N)cc4)CC3)cc2)no1,0.3,-1.1

One compound at a time (already shown).
Cc1nccn1-c1cc(C(C)(C)C)nc2c(-c3ccccc3)cnn12 in the list: NPYLR7 ag = -1.5; NPYLR7 ag max-min = -0.7
O=C(CSCc1cccc2ccccc12)N1CCc2ccccc2C1 in the list: NPYLR7 ag = -0.7; NPYLR7 ag max-min = -1.7
COc1ccc(F)c(-c2ncccc2C(=O)N2C[C@H]3CC[C@@H]2C3)c1 in the list: NPYLR7 ag = 7.4; NPYLR7 ag max-min = 2.2

Continued.
canonical_smiles,NPYLR7 ag,NPYLR7 ag max-min
O=C(Cn1c2ccccc2c2ncn(Cc3ccccc3)c(=O)c21)NCc1ccc(F)cc1,-0.6,-2.2
Cc1cnc(CN(C)C(=O)c2cc(CN3CCC(Cc4ccccc4)CC3)on2)[nH]1,3.6,-4.0
COc1cccc(CN2CCCC(NC(=O)CSc3ccccn3)C2)c1 (stereo not drawn),3.6,2.3
c1ccc(CSc2n[nH]c3nc4ccccc4n23)cc1,3.2,5.0
Cc1cnc(N)c(-c2ccc(O)cc2)c1,8.0,6.0
Cc1nc2nc(=O)[nH]c(N)c2nc1C,16.3,9.8
COc1ccc(Nc2nnc(SCC(N)=O)s2)cc1,-1.0,-7.4
c1ccc(Nc2nc(-c3cccs3)nc3ccccc23)cc1,-2.5,5.3
CCCN(C1=NC2CS(=O)(=O)CC2S1)c1ccc(OC)cc1 (stereo not drawn),10.1,7.1
Cc1c(Cl)cccc1NC(=O)C(C#N)C(=O)COc1ccc(F)cc1 (stereo not drawn),22.3,19.6
COc1cc(C=C2C(=O)N(C)C(=O)N(C)C2=O)cc([N+](=O)[O-])c1O,-19.5,-27.9
COc1ccccc1NC(=O)CSc1nc(C(F)(F)F)cc(=O)[nH]1,0.6,-0.6
O=C(Cc1cc(F)cc(F)c1)N1CCc2c(sc3[nH]c(=O)n(Cc4ccccc4)c(=O)c23)C1,5.0,5.0
CC(C)(O)C#Cc1cccc(C(=O)N2CCCCC2c2cccnc2)c1 (stereo not drawn),4.1,2.5
CCNC(=O)c1cc2c(OCC)cc3c(c2[nH]1)OC(C)C3 (stereo not drawn),-1.9&-1.1,-1.6&5.1

Remaining list, next part
canonical_smiles,NPYLR7 ag,NPYLR7 ag max-min
CN(C)S(=O)(=O)N1CCCC(CNC(=O)c2cccc(C(F)(F)F)c2)C1 (stereo not drawn),9.7,-3.1
COc1cccc(-c2cccc(-c3ccc(NC(=O)c4ccc(C(C)(C)C)cc4)cc3)n2)c1,-5.6,-6.8
COc1ccc(OC)c(-c2nc3c(OCc4ccccc4)cccn3c2NC(C)(C)C)c1,0.9,5.7
C=c1onc(-c2ccccc2Cl)c1=C1N=C(c2cccnc2)NO1,0.4,-1.3
CC(C)CCn1c(CN2CCN(C(C)C)CC2)cnc1S(=O)(=O)C(C)C,-3.3,-7.6
CSc1ncc(CNC(=O)c2ccccc2C2CCNC2)n1C (stereo not drawn),3.2,4.7
Cc1ccc(-c2noc(COc3ccc(C(C)C)cc3)n2)cc1,2.9,1.8
OCCC1CN(C2CCCCCC2)CCN1Cc1cccs1 (stereo not drawn),-6.4,-7.2
COc1ccc2ccc(Oc3c(C)c4ccccc4[nH]c3=O)cc2c1,1.2,-0.9
COc1ccc(-c2nc(C(=O)N3CCCC3)cs2)cc1OC,-13.6,-14.0
CC(C)NC(=O)N(Cc1ccccc1)c1cccc(CC(=O)N(C)Cc2ccco2)c1,4.1,2.0
COc1ccc(-c2cn3c(C(=O)Nc4ccon4)csc3n2)cc1,4.4,1.7
C=CCCC(O)CN(CCN1CCOCC1)Cc1ccsc1 (stereo not drawn),18.5,18.0
N#Cc1c(SCC(N)=O)nc2c(c1-c1ccco1)CCC2=Cc1ccco1,-4.1,-4.0
COc1cccc(-n2c(=O)n(CC3CC3)c(=O)c3c2ncn3CCOc2ccccc2)c1,4.9,3.1

Next records:
canonical_smiles,NPYLR7 ag,NPYLR7 ag max-min
CC(C)N1CCC2(CC1)Nc1ccccc1C(=O)N2C1CCCC1,5.8,1.4
Nc1noc(CCNC(=O)C(c2ccccc2)N2CCSCC2)n1 (stereo not drawn),1.5,-0.3
Nc1nc(N)nc(-c2cc(Cl)ccc2Cl)n1,-4.8&-10.6&-16.3,-1.2&-20.0&-20.4
CCn1c(C2CCN(S(=O)(=O)c3ccc(C)c(C)c3)CC2)n[nH]c1=O,1.6,20.5
Cn1cc(CN2CCCC(C(=O)c3cccnc3)C2)c(-c2cccc(Cl)c2)n1 (stereo not drawn),7.6,3.8
CCCn1c(=N)n(CC(=O)OC)c2ccccc21,0.3,-0.3
O=C(Nc1cnc2n1CCCC2)C1CCCN(Cc2ccco2)C1 (stereo not drawn),0.8,1.1
CCC(C)NC(=O)N1CCc2[nH]nc(-c3ccc(Cl)cc3)c2C1 (stereo not drawn),4.0,2.6
O=C(NCC1CCCN(S(=O)(=O)c2ccc(OC(F)(F)F)cc2)C1)c1cccnc1 (stereo not drawn),-0.3,-4.3
O=C(c1ccc2ccccc2c1)N1CCCC1c1cccnc1 (stereo not drawn),-7.1,-8.2
Cc1nc(N2CCCC2C(=O)NC2Cc3ccccc3C2)nc2cc(S(C)(=O)=O)ccc12 (stereo not drawn),16.6,4.7
COc1ccc(NC(=O)C2CCN(C(=O)[C@@H]3CCCN3C(=O)C3CCN(c4nccc(C(F)(F)F)n4)CC3)CC2)cc1,-4.1,-0.8
CC(Oc1cccc(Cl)c1)C(=O)N1CCOC(c2ccccc2)C1 (stereo not drawn),-5.2,-8.3
CC(=O)N1CCOC(CNC(=O)CCc2ccccc2O)C1 (stereo not drawn),5.8,4.3
COc1cc(OC)cc(C(=O)Nc2c(-c3ccccc3OC)nc3cc(C)ccn23)c1,-2.6,-2.9

The list continues:
canonical_smiles,NPYLR7 ag,NPYLR7 ag max-min
C/C(=N/Nc1nc(N2CCCCC2)nc(N2CCCCC2)n1)c1ccc(N)cc1,-2.4,-7.4
CNc1cc(-c2ccc(CC#N)cc2)ncn1,3.5,0.8
CC(C)c1cc(=O)n2c(nc3ccccc32)[nH]1,14.3,9.0
CCCSc1ncccc1C(=O)N1CCC(C(=O)OCC)CC1,-7.7,-15.5
O=C(NCCc1ccccn1)C(C1CCCC1)N1CCN(C(=O)COCc2ccccc2)CC1 (stereo not drawn),-4.9,-2.5
Cc1cccc2oc(CNC(=O)c3ccc(Cn4cnnn4)cc3)nc12,2.1,18.0
COc1ccc(N2C(=O)CSC23C(=O)Nc2ccccc23)cc1OC (stereo not drawn),15.2,10.6
CC(C)N1CCC(C)(C(=O)Nc2cccc(Oc3ccccc3)c2)C1 (stereo not drawn),-0.1,-1.6
CCCc1cc(=O)[nH]c(-n2nc(C)cc2NC(=O)c2cccs2)n1,7.6,1.0
CC1(Cc2ccc(C(F)(F)F)o2)C(=O)Nc2ccc(S(=O)(=O)NC3CCCCC3)cc21 (stereo not drawn),2.8,3.3
C=CCN(Cc1cccn1Cc1ccc(C(C)(C)C)cc1)C(C)(C=C)CO (stereo not drawn),22.7,18.5
COc1ccccc1NCC(=O)NCC(=O)Nc1ccc(F)cc1,13.2,9.1
CCCCCC(C)NCc1cnc(SC)nc1N1CCN(C)CC1 (stereo not drawn),-3.4,-13.7
O=C(NC(c1ccc(Cl)cc1)c1cccnc1)C1CCN(C/C=C/c2ccccc2)CC1 (stereo not drawn),-13.6,-15.3
O=C(NCCC1=CCCCC1)c1cncn1-c1ccc(-c2ccc(F)c(F)c2)cc1,24.2,29.9

Four entries from above, with each value named:
CNc1cc(-c2ccc(CC#N)cc2)ncn1
  NPYLR7 ag: 3.5
  NPYLR7 ag max-min: 0.8
CC(C)c1cc(=O)n2c(nc3ccccc32)[nH]1
  NPYLR7 ag: 14.3
  NPYLR7 ag max-min: 9.0
O=C(NCCc1ccccn1)C(C1CCCC1)N1CCN(C(=O)COCc2ccccc2)CC1 (stereo not drawn)
  NPYLR7 ag: -4.9
  NPYLR7 ag max-min: -2.5
CCCc1cc(=O)[nH]c(-n2nc(C)cc2NC(=O)c2cccs2)n1
  NPYLR7 ag: 7.6
  NPYLR7 ag max-min: 1.0

The list continues.
canonical_smiles,NPYLR7 ag,NPYLR7 ag max-min
Cc1cccc(OC2CN(C(=O)CCCS(N)(=O)=O)C2)c1,6.7,1.6
C=CCn1c(SCc2ccc(C(=O)N3CCOCC3)cc2)nnc1-c1ccc(C)cc1,0.3,14.8
CC(C)n1c(CN2CCC3(CCC(=O)N(C)CC3)CC2)nc2ccccc21,0.2,-2.2
Cc1ccccc1CN(C)C(=O)CSc1nc2ccccc2c(=O)n1C(C)C,-0.7,-4.7
Cc1ccccc1C1c2ccsc2CCN1C(=O)CN(C(=O)c1ccc([N+](=O)[O-])cc1)C1CCCCC1 (stereo not drawn),16.1,11.0
COCCCn1c(C(=O)NCc2ccco2)cc2c(=O)n(C)c(=O)n(C)c21,-0.9,-2.7
COc1ccc(C(=O)NCCn2cc(SCC(=O)Nc3ccc(C)cc3)c3ccccc32)cc1,0.1,-3.1
COCCN(C(=O)COc1ccc(C#N)cc1OC)C1=CCCCC1,8.4,1.6
Cc1cc([N+](=O)[O-])nn1CC(=O)Nc1sc2c(c1C#N)CCC(C)C2 (stereo not drawn),-1.3,-2.4
O=C(N1CCCC(CNS(=O)(=O)c2cccs2)C1)C12CC3CC(CC(C3)C1)C2 (stereo not drawn),5.3,0.9
COc1cccc(/C=C2N=C(/C=C\c3cccc([N+](=O)[O-])c3)OC/2=O)c1OC,19.8,20.9
Cc1cc(N2CCN(c3ccccn3)CC2)n2nc(C(F)(F)F)c(-c3ccccc3)c2n1,-3.9,-6.4
CN1CCN(S(=O)(=O)c2cc([N+](=O)[O-])ccc2N2CCNCC2)CC1,1.8,5.0
COCCCN1C(=O)CC(CC(=O)N2CCCCC2c2nccn2C)(c2ccccc2Cl)C1=O (stereo not drawn),3.5,4.8
CC(C)(C)NC(=O)C1CCCCC1C(=O)O (stereo not drawn),2.2,7.6

Continuation:
canonical_smiles,NPYLR7 ag,NPYLR7 ag max-min
CC1(C(=O)NS(=O)(=O)c2ccccc2Cl)CCN1C(=O)Cc1cccc2ccccc12 (stereo not drawn),4.8,1.6
Cc1c(O)cccc1C(=O)NC1CC(=O)N(CC2CCCCC2)C1 (stereo not drawn),15.3,3.0
COc1ccccc1CN(Cc1ccc(F)cc1)Cc1nc(C(=O)NCCc2ccccn2)co1,26.3,29.0
Cc1ccc2c(c1)CCN1C(=O)CN(C(=O)Nc3ccc(F)cc3)CC21 (stereo not drawn),-0.2,16.2
O=c1c2nnn(Cc3ccccc3F)c2ncn1Cc1ccc(Cl)cc1,8.8,11.9
CCn1c(C)cc(O)c(C(c2ccccc2OC)N2CCN(C)CC2)c1=O (stereo not drawn),12.0,2.9
CCONC(=O)C1CCN(C(=O)CCOc2ccccc2)CC1,-2.1,-4.6
CN(c1c(F)cc(C#N)cc1F)C1CCCCC1,-3.6,-7.2
CCn1c(N2CCN(Cc3cc(C)ccc3C)CC2)nc2c1c(=O)[nH]c(=O)n2C,-0.6,41.2
O=C(c1ccc(-c2ccc3c(c2)OCO3)s1)N1CCC(Cc2ccccc2)CC1,6.4,3.3
CN(Cc1ccccc1)C(NC(=O)c1ccccc1[N+](=O)[O-])C(Cl)(Cl)Cl (stereo not drawn),-15.0,-19.3
COc1cccc(Cl)c1-c1cccc(-n2cnnc2)c1,-0.8,-5.1
Cc1ccc(N2C(=O)N(CC(O)CN3CCOCC3)C(=O)C2C)cc1 (stereo not drawn),-3.9,-3.9
CC1CCN(C(CNC(=O)c2ccc(F)cc2NC(=O)c2ccoc2)C(C)C)CC1 (stereo not drawn),6.4,3.2

Not all compounds are listed. The share of hits here may be higher or lower than overall.
